# Assay outcomes from PubChem.
# A647 fluor – qHTS Assay for Spectroscopic Profiling in A647 Spectral Region; Compound fluorescence, A647 channel (570/671 nm), Tris buffer; max dye-equivalent concentration, M; 59,000 tested, under 10 active; AID 592, 2007; active means above 1 µM dye equivalent; inconclusive means 0.1 to 1 µM; inactive means 0.1 µM or less;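 note: values scaled relative to a standard on each plate; highest value over a series up to 38 µM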
#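 Tris 100 mM pH 8.0; cpd + A647 stds pin-transferred; 15 min RT; CCD imager, ex 570/em 671. Output = A647-equivalent conc. per cpd conc.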
# TSHR ag – qHTS Assay for Agonists of the Thyroid Stimulating Hormone Receptor | Thyrotropin receptor (Homo sapiens), P16473 | HEK293-CNG-TSHR cells (CNG channel as cAMP sensor), membrane potential dye, cAMP | Potency, µM (series often up to 57.1 µM), for inactives: at the highest dose activation, most hits filed as activators | 73,000 tested, 0.48% active | AID 926, 2007; active = well fitted activation curve of enough size with the parental cells flat; inconclusive = any curve in the parental cells; inactive = parental cells flat and receptor cells flat or falling; note: potency is the fitted concentration of half-maximal effect; % of control where 0% means no effect; weak receptor curves with flat parental cells got no call and are not listed
# Target sequence (P16473 whole entry, looked up): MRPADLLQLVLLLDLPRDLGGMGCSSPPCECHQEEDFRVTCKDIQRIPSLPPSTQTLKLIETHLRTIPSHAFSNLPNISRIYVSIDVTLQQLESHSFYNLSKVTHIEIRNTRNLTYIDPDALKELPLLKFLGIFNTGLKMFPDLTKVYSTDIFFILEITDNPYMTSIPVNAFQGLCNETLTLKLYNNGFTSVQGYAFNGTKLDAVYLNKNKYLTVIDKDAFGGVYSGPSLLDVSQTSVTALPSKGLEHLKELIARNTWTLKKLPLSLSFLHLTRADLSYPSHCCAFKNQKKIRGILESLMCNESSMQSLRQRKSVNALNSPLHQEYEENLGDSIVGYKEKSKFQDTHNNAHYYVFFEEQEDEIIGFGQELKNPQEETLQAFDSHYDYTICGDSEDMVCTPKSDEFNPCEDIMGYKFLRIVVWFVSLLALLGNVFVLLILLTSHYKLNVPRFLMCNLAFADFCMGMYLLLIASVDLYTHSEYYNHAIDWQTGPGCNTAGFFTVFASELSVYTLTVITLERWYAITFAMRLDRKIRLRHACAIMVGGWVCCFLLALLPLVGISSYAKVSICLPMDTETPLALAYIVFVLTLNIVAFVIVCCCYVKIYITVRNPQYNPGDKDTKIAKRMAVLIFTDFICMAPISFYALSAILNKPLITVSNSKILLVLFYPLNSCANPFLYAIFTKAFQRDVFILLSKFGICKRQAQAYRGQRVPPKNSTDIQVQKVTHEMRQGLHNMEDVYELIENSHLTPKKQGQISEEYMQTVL
#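 HEK 293 cells stably expressing TSHR and a cAMP-gated CNG channel; parental CNG-only cells as counterscreen. Cells preloaded 60 min with membrane potential dye plus 100 uM RO 20-1724, then compound 30 min; fluorescence read at 590 nm.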
# A488 autofl – qHTS Assay for Spectroscopic Profiling in A488 Spectral Region. max dye equivalency, M. 59,000 tested, 0.1% active. compound autofluorescence, A488 spectral region, dye equivalency; hits give high values; active = above 10 nM dye equivalent; inconclusive = 1 to 10 nM; inactive = 1 nM or less; about half of its hits are not listed in these tables;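 note: highest value over a series up to 38 µM; compound alone in buffer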
#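 Autofluorescence read at ex 480/em 540 nm after 15 min RT in 100 mM Tris pH 8.0; compound signal normalized to A488 standard series on each plate, reported as dye-equivalent concentration at each test concentration.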
# Resorufin fluor – qHTS Assay for Spectroscopic Profiling in Resorufin Spectral Region. Compound fluorescence, resorufin region 547/598 nm, buffer; hits give high values. max dye-equivalent concentration, M. 59,000 tested, 0.04% active; active = above 10 nM dye equivalent; inconclusive = 1 to 10 nM; inactive = 1 nM or less; a few of its hits are not listed in these tables; note: highest value over a series up to 38 µM
#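 Intrinsic fluorescence profiled in the resorufin window (ex 547 nm, em 598 nm) after 15 min at room temperature in pH 8.0 Tris buffer (100 mM); responses normalized against a six-point resorufin standard series as dye-equivalent concentration.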
# AID923 – qHTS Assay for Allosteric/Competitive Inhibitors of Caspase-1: Spectroscopic Profiling in AFC Spectral Region; compound fluorescence, AFC spectral region (405/520 nm); almost no hit is shown here; Potency, µM (series often up to 57.5 µM), for inactives: at the highest dose fluorescence increase, most hits filed as activators; 75,000 tested, 1.1% active; active = well fitted activation curve with a large enough effect; inconclusive = small, poorly fitted or top-dose-only effect;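 note: potency is the fitted concentration of half-maximal effect; 0% is about no effect; scaled to a free AFC standard on each plate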
#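 Baseline compound fluorescence (AFC region, 405 nm ex/520 nm em) taken from the intercept of kinetic reads with 50 nM caspase-1 and 5 uM Ac-WEHD-AFC; normalized to an on-plate AFC standard curve; compounds titrated up to 57 uM.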
# * = called active by the depositor; i = inactive; ? = inconclusive; nt = not tested or not shown; [ ] = another dose, or the depositor's remark. A portion of the library (hit frequency here may not be typical).
SMILES,A647 fluor,TSHR ag,A488 autofl,Resorufin fluor,AID923
COC(=O)Cn1cc(C(=O)c2cccs2)c2ccccc21,7.2e-09,0%,i,i,-2.4%
Cc1nn(C)c(C)c1NC(=O)c1ccc(S(=O)(=O)N(C)C)cc1,4.2e-08,-7%,i,i,0.0%
O=C(NC1=NCCS1)c1ccc(-c2ccc(Cl)cc2)o1,1e-09,-2%[11.4 µM],i,i,-1.2%
Cc1c(C)c2c(c(C)c1O)CC[C@@](C)(CN1CCN(c3cc(N4CCCC4)nc(N4CCCC4)n3)CC1)O2,1e-09,?,i,i,-2.1%
O=C(COc1ccc(Cl)cc1Cl)Nc1ccc(Cl)cn1,nt,?,nt,nt,-1.8%
O=C1COc2ccc(C(=O)CSc3nnnn3-c3ccccc3)cc2N1,1e-09,28%,i,i,-0.5%
C#CCCCO/N=C1/C[C@@H](O)[C@@H](O)[C@@H]2[C@@H]3C(=O)N(CCC(=O)OCC)C(=O)[C@H]3CC[C@@H]12,nt,-2%[11.4 µM],nt,nt,-1.1%[11.5 µM]
CCOc1cc(N2CCOCC2)c(OCC)cc1NC(=O)CN1C(=O)NC(Cc2ccccc2)C1=O (centres undefined),6.3e-09,2%,i,i,0.1%
c1cncc(-c2cccnc2)c1,1.9e-08,0%,i,i,1.0%
COc1ccc(N(CC(=O)Nc2cccc(C(C)=O)c2)S(C)(=O)=O)cc1OC,nt,0%,nt,nt,2.0%
COc1ccc2cc(C#N)c(SCC(=O)N3CCCC3)nc2c1,5.2e-08,10%,i,i,1.2%
CC1Cc2ccccc2N1C(=O)Cc1cccs1 (centres undefined),2.8e-08,-3%,i,i,-1.7%
Cc1ccc(-n2c(SCC(=O)Nc3ccc4cn[nH]c4c3)nnc2-c2ccco2)cc1,3e-08,nt,i,i,-1.2%
COc1ccc2cccc(N3CCN(CCNC(=O)c4ccc(F)cc4)CC3)c2c1,nt,20%,nt,nt,-2.8%
O=C(O)COc1ccc(C(=O)Cc2ccc3c(c2)OCCCO3)c(O)c1,1e-09,4%,i,i,-1.3%
Cc1cccc(N2CCN(C(c3ccccc3)c3nnnn3CC3CCCO3)CC2)c1C (centres undefined),2.1e-09,?,i,i,0.6%
O=C1OC(Nc2nccs2)c2ccccc21 (centres undefined),2.1e-09,-1%[11.4 µM],i,i,-1.4%
CC(=O)N1CCC2(CCCN(c3ncccn3)C2)CC1,1e-09,-2%,i,i,2.3%
CCOC(=O)CSC1=Nc2ccccc2C2=NC(CC(=O)NCc3cccs3)C(=O)N12 (centres undefined),1.8e-08,-2%,i,i,2.3%
COc1ccc(C(=O)[C@H]2[C@H]3[C@@H](C(=O)[C@@H]4OC[C@H]3O4)[C@H]3C=Cc4ccccc4N32)c(OC)c1,2.1e-08,-4%,i,i,nt
CCN(CC)C(=O)CN(Cc1ccccc1)S(=O)(=O)c1ccc(F)cc1,nt,25%,nt,nt,-1.1%
CCOC(=O)CCCNC(=O)c1cncc(Br)c1,nt,3%,nt,nt,-1.1%
N#Cc1ccsc1NC(=O)c1ccccn1,1.7e-08,3%,i,i,-1.5%
Cc1ccc(NC(=O)CSc2nnc(Cn3c(=O)sc4ccccc43)n2C)cc1Cl,nt,0%,nt,nt,0.0%
N#Cc1nc(-c2cccc3ccccc23)oc1N1CCCCC1,2.5e-09,7%,i,i,5.7%
Cc1cc(C)nc(NC(=NCCc2c[nH]c3ccccc23)NC(=O)c2ccco2)n1,1.3e-08,5µM*,i,i,-0.7%
COc1ccc2c(c1)C(C)=CC(C)(C)N2C(=O)CSc1nnc(-c2ccc(C)cc2)o1,nt,?,nt,nt,0.0%
N#Cc1ccc(CSc2nnc(-c3cccnc3)n2-c2ccccc2)cc1,1e-09,7%,i,i,0.7%
Cn1c(SCC(=O)OCC(=O)c2ccccc2)nnc1-c1cccs1,4e-08,2%,i,i,0.6%
CCN1CCN(c2ccc(-n3c(C)nc4c(cnn4-c4ccccc4Cl)c3=O)cc2)CC1,1e-09,nt,i,i,1.2%
c1ccc(OCCn2c(-c3ccco3)nc3ccccc32)cc1,nt,?,nt,nt,0.0%
CCOC(=O)C(O)(CCC(O)(C(=O)OCC)C(=O)OCC)C(=O)OCC,nt,1%,nt,nt,1.9%
CCOc1cccc2cc(C(=O)NCc3cccnc3)c(=O)oc12,1e-08,0%,i,i,-1.5%
Cc1ccc(C2CC(c3ccc(Cl)cc3)n3nc(N)nc3N2)cc1 (centres undefined),nt,2%,nt,nt,-3.8%
CC(C)(C)NC(=O)Cn1c(=O)oc2ccc(Cl)cc21,nt,21%,nt,nt,-1.5%
CCCCOc1ccc(-c2ncc(C(=O)O)c(C)n2)cc1,4.5e-08,-8%,i,i,0.7%
O=C(CSc1nc2ccsc2c(=O)n1Cc1ccccc1)NCc1ccco1,2.8e-08,?,i,i,0.1%
COc1cc2c(=O)n(Cc3ccccc3)c(=O)n(CC(=O)NCC3CCCO3)c2cc1OC (centres undefined),1.8e-09,3%,i,i,0.1%
CCCCn1nnc(NC(=O)CC23CC4CC(CC(C4)C2)C3)n1,1e-09,-20%,i,i,0.3%
Clc1ccc(CSc2nnc([C@@H]3CCCN3)o2)cc1,1e-09,3%,i,i,1.3%
N#Cc1c(F)cccc1N1CCOCC1,6.4e-09,12%,i,i,0.5%
CCOC(=O)C1=C(C)Nc2ncnn2C1c1ccc2c(c1)OCO2 (centres undefined),1.6e-08,3.2µM*,i,i,-2.1%
C=CC1=C(C)C2=NC1=CC1=NC(=CC3=NC(=CC4=NC(=C2)C(C)=C4CCC(=O)O)C(CCC(=O)O)=C3C)C(C=C)=C1C.[Zn],nt,?,nt,nt,1.5%
CC1CCN(S(=O)(=O)c2cc(Cl)ccc2Br)CC1,1e-09,?,i,i,0.4%
COCCn1c(SCC(=O)N2CCCCC2)nc2ccccc2c1=O,4.9e-09,16%,i,i,-1.5%
COC(=O)c1c(-c2ccc(F)cc2)csc1NC(=O)c1ccco1,nt,?,nt,nt,3.6%
CCn1c(Cn2nnc(-c3ccccc3)n2)nnc1SCc1ccc(Cl)c(Cl)c1,4e-08,nt,i,i,1.6%
Cc1ccc(OCCSc2nnc(NC(=O)c3ccco3)s2)cc1,1.9e-08,23%,i,i,-1.3%
COc1ccccc1-c1cc(C(F)(F)F)nc(S(=O)(=O)CCCC(=O)N2CCCCC2C)n1 (centres undefined),1e-09,?,i,i,1.9%
CCN(CC)CCN1c2ccccc2Sc2ccc3ccccc3c21,4.2e-08,0%[11.4 µM],i,i,1.6%[11.5 µM]
O=C(Cn1cc(C(=O)c2cccs2)c2ccccc21)NCc1ccc2c(c1)OCO2,nt,18%,nt,nt,-1.2%
CCN(Cc1ccccc1)S(=O)(=O)c1nc2nc(C)c(C)c(C)n2n1,2.7e-08,nt,i,i,0.0%
COc1ccc(NC(=O)c2c(-c3ccccc3Cl)noc2C)c(OC)c1,4e-08,?,i,i,0.1%
CCOC(=O)N1CCN(C(=O)c2cc3c(=O)n(C)c4ccccc4c3n2C)CC1,nt,4%,nt,nt,-1.2%
Cc1cc2c(c(=O)o1)C(Cc1ccccc1)C(C#N)=C(N)O2 (centres undefined),1e-09,nt,i,i,nt
Cc1nn(C(C)C(=O)O)c(=O)c2c1sc1ccccc12 (centres undefined),3.4e-08,13%,i,i,-1.3%
COc1ccc(NC(=O)c2ccco2)cc1NC(=O)c1c(F)c(F)c(OC)c(F)c1F,1.7e-08,-3%,i,i,-0.6%
O=C1c2ccccc2CC[C@H]1CNCCc1ccc(O)cc1,nt,9%,nt,nt,-1.1%
CN1C(=O)N(CN2CCCCC2)C2C1N(C)C(=O)N2CN1CCCCC1 (centres undefined),2.8e-09,?,i,i,-0.1%
CCOC(=O)c1c(C)[nH]c2ccc3c(c12)CN1CCc2cc(OC)ccc2[C@@H]1O3,nt,?,nt,nt,-3.5%

# Complete entries, looked up by structure.
# Profile of N#Cc1nc(-c2cccc3ccccc23)oc1N1CCCCC1 → A647 fluor = 2.5e-09; TSHR ag = 7%; A488 autofl = i; Resorufin fluor = i; AID923 = 5.7%
# Profile of CC(C)(C)NC(=O)Cn1c(=O)oc2ccc(Cl)cc21 → A647 fluor = nt; TSHR ag = 21%; A488 autofl = nt; Resorufin fluor = nt; AID923 = -1.5%

# Later entries.
SMILES,A647 fluor,TSHR ag,A488 autofl,Resorufin fluor,AID923
N#Cc1cccc(-c2ccc3ncnc(NCc4ccccc4)c3c2)c1,2.3e-08,?,i,i,1.0%
CCOc1ccccc1NC1=NCC(=O)N1Cc1ccc(F)cc1,4.2e-09,0%,i,i,1.9%
CCC(=O)n1nc(NCc2ccccc2OC)nc1NCc1ccccc1OC,2e-08,26%,i,i,1.8%
O=C(Nc1nnc(CCN2CCOCC2)s1)C1CCCCC1,1e-08,-15%,i,i,-3.1%
CCC/C=C(\CCC)C(NC(=O)c1ccc(C(F)(F)F)cc1)c1ccc(C(F)(F)F)cc1 (centres undefined),nt,15%,nt,nt,1.7%
Cc1ccc2c(c1)N(CC(=O)N1CCCCC1c1cccnc1)C(=O)CO2 (centres undefined),4.1e-08,4%,i,i,-0.4%
Cc1cc(NC(=O)COC(=O)c2cc3c(s2)CCC(C)C3)no1 (centres undefined),1e-09,-2%,i,i,0.2%
Cc1ccc2nc(N/N=C\c3cccc(C)n3)cc(C)c2c1,1e-09,10%[11.4 µM],i,i,0.7%[11.5 µM]
O=C(NCCCO)c1ccc2[nH]c3ccccc3c2c1,1e-08,-8%,i,i,-1.8%
CSc1ccccc1NS(=O)(=O)c1ccc2c(c1)OCCO2,7.9e-09,19%,i,i,0.3%
COC(=O)c1c(NC(=O)C2CC2)sc2c1CCCC2,nt,-1%,nt,nt,-3.6%
COc1cc2c(=O)n(Cc3ccco3)c(=O)n(CC(=O)c3ccc(Br)cc3)c2cc1OC,8e-09,19%[11.4 µM],i,i,2.7%
CN=C1SC(CC(=O)Nc2cc(Cl)ccc2Cl)C(=O)N1C (centres undefined),1e-09,7%,i,i,1.3%
O=C(c1ccccc1NS(=O)(=O)c1ccc(Br)s1)N1CCCC1,4.3e-09,0%,i,i,2.3%
CC(C)[C@@H]1[C@H]2CC[C@H](C2)[C@H]1N,4.5e-08,-19%,i,i,-1.1%

# Some of these compounds in order of the A647 fluor value, rising.
SMILES	A647 fluor
CC1CCN(S(=O)(=O)c2cc(Cl)ccc2Br)CC1	1e-09
O=C1OC(Nc2nccs2)c2ccccc21 (centres undefined)	2.1e-09
O=C(Nc1nnc(CCN2CCOCC2)s1)C1CCCCC1	1e-08
CCC(=O)n1nc(NCc2ccccc2OC)nc1NCc1ccccc1OC	2e-08
Cc1ccc(-n2c(SCC(=O)Nc3ccc4cn[nH]c4c3)nnc2-c2ccco2)cc1	3e-08

# (more compounds)
SMILES,A647 fluor,TSHR ag,A488 autofl,Resorufin fluor,AID923
CCOc1ccc(C2C(C(=O)c3ccc(C)o3)=C(O)C(=O)N2CCCN(CC)CC)cc1 (centres undefined),4.2e-09,nt,i,i,nt
COc1ccc(CC(NC(C)=O)C(=O)NC2CCN(S(=O)(=O)c3ccccc3)CC2)cc1OC (centres undefined),4.6e-08,-1%,i,i,-0.9%
Cc1nnc(SCC(=O)N2CCC(C(N)=O)CC2)s1,4.7e-08,nt,i,i,nt
O=C(COC(=O)CCOc1ccccc1)Nc1ccc(Cl)cn1,1e-09,2%,i,i,-0.8%
COCCOc1ccc(C(F)(F)F)cc1Nc1nc2ccccc2o1,1.2e-08,13µM*,i,i,0.1%
COc1cccc(/C=N/n2cncn2)c1OCC#N,3.8e-08,8%,i,i,0.2%
CC(C)[C@H](NC(=O)NC1CCCC1)C(=O)O,7e-09,-2%,i,i,0.3%
CCOc1cc(C(=O)N2CCN(c3ccc(C(C)=O)cc3)CC2)cc(OCC)c1OCC,1e-09,5%,i,i,0.1%
